Assay outcomes as filed in PubChem BioAssay.
ALR H2O2 inh: inhibitors of human sulfhydryl oxidase ALR. P55789. purified ALR, DTT oxidation, H2O2 HRP-luminol luminescence. inhibition, % (test concentration not listed). 290,000 compounds, 3.8% hits. AID 485317;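 active = mean and each replicate at 75% or more; inconclusive = only one of the two met; inactive = neither met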;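 note: stock transfer was 7.5 nL into about 7.5 µL; 0% = neutral wells and 100% = wells with inactivated enzyme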
Target sequence (P55789 whole entry, looked up): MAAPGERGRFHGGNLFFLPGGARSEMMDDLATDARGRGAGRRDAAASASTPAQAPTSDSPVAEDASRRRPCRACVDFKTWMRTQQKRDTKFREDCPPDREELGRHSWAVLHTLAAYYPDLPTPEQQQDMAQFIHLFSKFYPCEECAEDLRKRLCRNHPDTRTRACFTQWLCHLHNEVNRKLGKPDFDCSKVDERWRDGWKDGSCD
UCH37 DUB inh: inhibitors of human deubiquitinating enzyme UCH37 | purified proteasome/UCH37, Ub-AMC cleavage fluorescence | AID 588478 | inhibition, % (test concentration not listed) | Q9Y5K5 | 330,000 compounds, 0.33% hits;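 active = mean of two replicates above 20%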;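 note: 0% = compound-free wells with enzyme and 100% = wells lacking proteasome; stock transfer was 100 nL into about 20 µL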
Target sequence (Q9Y5K5 whole entry, looked up): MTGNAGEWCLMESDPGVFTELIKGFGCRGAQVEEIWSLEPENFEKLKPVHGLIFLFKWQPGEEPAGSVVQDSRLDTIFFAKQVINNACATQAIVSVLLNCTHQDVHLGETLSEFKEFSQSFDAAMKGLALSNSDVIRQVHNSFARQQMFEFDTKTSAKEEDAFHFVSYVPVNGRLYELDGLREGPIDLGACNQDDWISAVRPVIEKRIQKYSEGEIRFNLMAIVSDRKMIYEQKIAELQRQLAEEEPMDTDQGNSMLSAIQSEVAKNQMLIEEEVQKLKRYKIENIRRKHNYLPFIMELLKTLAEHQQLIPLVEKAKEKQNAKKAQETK
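Signal – fluorescence, ex 355 nm, em 460 nm · System – Proteasome-bound UCH37 · Input – 0.15 nM proteasome as dispensed · Timing – 30 min preincubation with enzyme, 25 min cleavage at room temperature · Read-out basis – percent inhibition of cleavage signal versus uninhibited and no-proteasome wells · Medium – Tris-HCl pH 7.4 with ATP-MgCl2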
E coli growth: blocks Escherichia coli growth; OD600, 23 h; stronger effect = lower value; OD600 absorbance (no concentration beside the values); 330,000 compounds, 0.21% hits;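 active = OD600 absorbance below the run mean of sample wells minus 3.6 SD, in any replicate, cut at about 0.56 in these data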;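 note: stock transfer was 300 nL into about 60 µL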
Beta2AR agonist: activates human beta-2 adrenergic receptor causing internalization. AID 504454. response, % (no concentration beside the values). P07550. Am2.2-beta2AR cells, FAP receptor internalization, flow cytometry; reference of the scale not given here. 340,000 compounds, 0.43% hits;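 active = response above a set limit, near 3 SD of response in nonfluorescent compounds, cut at about 42% in these data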;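 note: stock transfer was 100 nL into about 11 µL; a reference agonist was the positive control; negative values mostly stem from fluorescent compounds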
HNF4A DNA FP: change in binding of human HNF4 alpha to DNA; activity change, % at 10 µM; AID 1224865; 360,000 compounds, 0.3% hits; HNF4a-FITC DNA binding, fluorescence polarization, 1 h; in the data active = activity change above about 30%, passing the limit was not always enough;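 note: controls were the assay level and a saturating level of protein; the project sought stronger binding though the title names inhibitors; some compounds called inactive have numbers as strong as hits; positive values seem to mean higher polarization but the record does not say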
LANA-H2B inh: blocks KSHV LANA binding to histone H2A/H2B. Q9QR71. cell-free LANA-H2A/H2B peptide, fluorescence polarization. inhibition, % (test concentration not listed). 320,000 compounds, 0.6% hits. AID 2629; in the data active = inhibition mostly above about 10%, no sharp cut-off; inactive = mostly below about 6.7%;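 note: stock transfer was 7.5 nL into about 10 µL; 0% = median of vehicle wells and 100% = median of positive control wells; one replicate is shown; the record names a cut of 25% in any replicate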
FGF22 binding: binders of recombinant human FGF22 by thermal shift | Q9HCT0 | SYPRO orange fluorescence; percent of sucrose octasulfate shift, DMSO zero | calls only at 9.99 µM | 340,000 compounds, 1.5% hits | AID 651658;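 active = melting point raised past a set limit in the mean and every replicate; inconclusive = no clear call; three in four hits are not shown here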
Target sequence (Q9HCT0 whole entry, looked up): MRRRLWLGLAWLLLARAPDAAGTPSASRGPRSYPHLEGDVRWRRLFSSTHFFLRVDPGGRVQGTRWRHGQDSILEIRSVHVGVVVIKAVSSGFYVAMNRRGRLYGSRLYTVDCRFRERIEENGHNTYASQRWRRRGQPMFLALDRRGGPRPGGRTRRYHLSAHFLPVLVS
The depositor's hits bear a star; i = inactive; ? = inconclusive; . = no result given; + = active, no number; & = joins results of further samples. An excerpt, so the mix of outcomes need not match the whole.

Molecule	ALR H2O2 inh	UCH37 DUB inh	E coli growth	Beta2AR agonist	HNF4A DNA FP	LANA-H2B inh	FGF22 binding
CN1CCN(C(=O)C2CCC(C)(C(=O)O)C2(C)C)CC1 (stereo unspecified)	-7	0.1	0.65	2	-0.7	-1.2	i
COc1ccccc1C1CCN(Cc2ccccc2Cl)CC1	6	2.7	0.64	-6	1.2	-2.3	i
COc1ccc(C(=O)O)cc1S(=O)(=O)N(C)CCc1ccccn1	-4	2.4	0.65	-6	3.1	2.6	i
Cc1cc(N/N=C(/CCC(=O)O)C(=O)O)nc2ccccc12	-5	.	.	4	1.0	-1.3	i
CCc1cccc(CC)c1NC(=O)CSc1nnc(CCC(=O)O)c(=O)[nH]1	-3	1.1	0.66	-3	2.2	5.6	i
CC1COc2ccccc2N1C(=O)c1ccc(F)cc1 (stereo unspecified)	-4	-0.8	0.65	8	-4.7	3.8	i
Cc1nn(-c2ccccc2)c2sc(C(=O)OCN3C(=O)c4ccccc4C3=O)cc12	-6	0.1	0.73	.	.	-3.6	.
O=c1[nH]c(=O)n(C2CC(O)C(CO)O2)cc1Br (stereo unspecified)	.	.	.	-3	-1.3	.	i
Cc1ccc(-c2cc(C(=O)NCCN3CCOCC3)no2)cc1	-7	2.9	0.65	-3	-2.5	-0.6	.
COc1ccccc1OCC(=O)NNC(=O)C(=O)N1CCCC1	-25	3.1	0.65	2	-2.4	1.3	.
CCCNC(=S)Nc1cc2oc3ccccc3c2cc1OC	-20	1.7	0.71	8	5.8	0.5	i
Cc1nnc(SCC(=O)Nc2sc3c(c2C(N)=O)CCCC3)[nH]c1=O	-3	2.7	0.69	-7	2.4	-3.6	.
COc1ccccc1C(C(=O)NCc1ccccc1)N(C(=O)c1csnn1)C1CC1 (stereo unspecified)	.	2.7	0.66	-1	1.2	1.1	i
Clc1cccc(Cl)c1CNCCCSc1ncccn1	2	1.3	0.66	19	-0.3	4.8	i
O=C(CSCc1ccc(F)cc1)Nc1ccccc1C(=O)N1CCOCC1	-6	0.0	0.72	-4	2.9	3.4	.
CC(=O)n1cc([C@@H]2C=C(C(=O)NCc3ccccc3)O[C@H](OCc3ccc(CO)cc3)C2)c2ccccc21	.	5.2	.	28	-0.5	-2.2	i
CCOC(=O)N/N=C\c1ccc([N+](=O)[O-])o1	-35	.	.	-3	-2.5	8.7	.
CCN1CCN(C(=O)CCCn2c(C)c3cnn(-c4ccccc4)c(=O)c3c2C)CC1	.	2.6	0.77	6	-2.1	5.5	i
O=C(CCC1CCCN(Cc2ccncc2)C1)NCc1ccc(F)c(F)c1 (stereo unspecified)	14	-2.1	0.66	-2	1.9	2.1	i
CCN(C(=O)COC(=O)/C=C/c1c(C)nn(-c2ccccc2)c1C)c1c(N)n(Cc2ccccc2)c(=O)[nH]c1=O	.	1.9	0.63	0	1.6	.	i
COc1ccc(N2CCN(CCNC(=O)c3ccc(NC(=O)C4CCCO4)cc3)CC2)cc1 (stereo unspecified)	13	1.4	0.67	5	-1.2	3.5	.
COc1ccc(-n2ncc3c2CC(C)(C)CC3NC(=O)CN2CCOC2=O)cc1 (stereo unspecified)	-9	0.0	0.69	0	1.4	0.0	i
CC1Cc2ccccc2N1C(=O)COC(=O)c1ccc(S(=O)(=O)N(C)C)cc1 (stereo unspecified)	1	3.6	0.72	-1	-1.0	1.4	.
CCN(CC(=O)Nc1c(F)cccc1F)C(=O)CCNS(=O)(=O)c1ccccc1C(F)(F)F	-3	0.8	0.69	8	1.1	-0.2	i
C=CCOc1c(/C=N\NC(N)=O)cccc1OC	-5	.	.	2	1.1	2.5	i
Cc1noc(C)c1C(=O)N(CC(C)C)c1nc2ccccc2s1	1	0.8	0.73	0	1.0	-5.1	i
Cc1cc(-c2cc(N)n(-c3ccccc3)n2)c(C)n1C1CCCC1	-2	3.3	0.65	5	4.0	-2.5	i
COCc1cc(Sc2cccc(Cl)c2Cl)nc(-c2ccccc2)n1	-11	2.1	0.78	1	2.5	3.6	.
COc1ccc(Cc2nnc(SCC(=O)Nc3c(C)cccc3C)[nH]c2=O)cc1	-1	1.8	0.63	-5	1.6	-3.4	i
CC(C)(C)c1ccc(S(=O)(=O)n2c(CN3CCOCC3)nc3ccccc32)cc1	-3	1.9	0.73	-2	1.3	-1.9	.

Sorted by number of heavy atoms (highest first): part of the list above
Molecule	ALR H2O2 inh	UCH37 DUB inh	E coli growth	Beta2AR agonist	HNF4A DNA FP	LANA-H2B inh	FGF22 binding
CC1Cc2ccccc2N1C(=O)COC(=O)c1ccc(S(=O)(=O)N(C)C)cc1 (stereo unspecified)	1	3.6	0.72	-1	-1.0	1.4	.
COc1ccccc1C1CCN(Cc2ccccc2Cl)CC1	6	2.7	0.64	-6	1.2	-2.3	i
Clc1cccc(Cl)c1CNCCCSc1ncccn1	2	1.3	0.66	19	-0.3	4.8	i

(more compounds)
Molecule	ALR H2O2 inh	UCH37 DUB inh	E coli growth	Beta2AR agonist	HNF4A DNA FP	LANA-H2B inh	FGF22 binding
CN1CSC2=C(C#N)C(c3cccc(OCc4ccccc4)c3)CC(=O)N2C1 (stereo unspecified)	.	7.0	0.79	-4	0.3	-1.3	i
CCN1C(=O)[C@H]2[C@H]3CN=C(SCC4CC4)N3[C@@](Cc3ccccc3)(C(=O)OC)[C@H]2C1=O	.	0.8	0.7	-2	0.7	.	i
CSc1ccc(CNC(=O)C2Cc3cc(S(=O)(=O)N4CCCCC4)ccc3N2C(C)=O)cc1 (stereo unspecified)	0	4.7	0.68	-6	2.0	-3.7	i
O=C(Cc1c(F)cccc1Cl)OCC(=O)N1CCN(c2ccccc2)CC1	22	.	.	-1	-1.8	-5.9	i
CCN(CC(=O)NCc1ccc(F)cc1)C(=O)C1CCN(C(=O)Nc2ccccc2)CC1	-6	1.9	0.72	-14	4.0	3.9	.
COc1ccccc1CCn1c(N)c(C#N)c2nc3ccccc3nc21	-7	-426	0.68	-2	5.8	1.1	.
Cc1cccc(OCCC(=O)OC(C)C(=O)Nc2ccc(Cl)cn2)c1 (stereo unspecified)	5	-0.1	0.66	-1	-0.5	-4.5	i
CCC(C)(C)NC(=S)Nc1ccc(-c2nc3ccc(C)cc3s2)cc1	-3	-14	0.73	16	7.7	-9.2	i
COc1ccc(NC(=O)CC2C(=O)N(Cc3ccco3)C(=S)N2C(C)C)cc1 (stereo unspecified)	-3	3.2	0.7	8	-0.9	4.2	i
CC(C)N(Cc1nc(-c2ccccc2)no1)C(=O)C(C)(C)C	1	3.7	0.76	-4	1.1	-2.4	.
O=C(CN1CCC(C(=O)c2ccc(F)cc2)CC1)Nc1ccccc1	-6	0.4	0.68	-4	2.1	0.7	.
O=S(=O)(NC1=NCCCCC1)c1ccc(Cl)cc1	-3	5.7	0.68	-5	0.8	+	i
NC(=O)NC(=O)COC(=O)c1ccc2noc(-c3ccccc3)c2c1	-3	1.5	0.66	-6	4.8	-0.7	i
CCCCN(C(=O)C1COc2ccccc2O1)c1c(N)n(CCC)c(=O)[nH]c1=O (stereo unspecified)	-6	2.3	0.65	2	0.7	15	i
CNC(=O)OCN1C(=O)C2CC=CCC2C1=O (stereo unspecified)	.	3.4	0.66	-4	2.1	.	i
CCCOC(=O)c1cccc(NC(=O)c2cccnc2)c1	-5	0.7	0.69	0	0.8	-0.9	.
Cc1ccccc1-n1c(-c2csc(C)c2C)n[nH]c1=S	5	3.3	0.73	15	1.7	-2.0	.
O=C1c2ccccc2C(=O)N1CSc1nnc(Nc2ccccc2F)s1	-5	0.0	0.68	-23	0.4	5.1	i
COc1cc2c(cc1OC)C(Cc1ccc(O)cc1)NCC2 (stereo unspecified)	3	-0.7	0.72	0	-2.7	-1.5	i
CN(C)S(=O)(=O)N1CCc2ccc(NC(=O)c3ccccc3Cl)cc2C1	.	1.8	0.7	0	-1.8	-2.6	i
CC12CC3(C)CC(C)(C1)CC(C(N)=O)(C2)C3	2	.	.	2	0.8	-7.8	i
COc1ccc(C(=O)NNC(=O)CSc2nnc(C(C)C)n2C)cc1	.	5.6	0.67	-17	-0.3	1.4	i
COc1ccc(CCNC(=O)c2cc(S(=O)(=O)N(C)C)ccc2N2CCCC2)cc1	.	2.2	0.67	2	1.4	2.8	i
Cc1cc(NC(=O)CSc2ccc3c(c2)OCCO3)no1	-14	5.0	0.78	5	1.8	1.0	.
Cc1cccc(NC(=O)/C(=C\c2cccs2)NC(=O)c2ccccc2)c1	7	-3.1	0.72	-11	3.8	1.3	.
Cc1cc(C)nc(SCc2ccc(Cl)cc2)n1	0	2.4	0.59	-3	2.5	-1.7	i
Cc1ccnc(NC(=O)CSc2ccccn2)c1	7	4.4	0.67	-3	2.8	-3.6	i
C=CCNC(=O)c1ccc(N(Cc2ccc(Cl)cc2)S(C)(=O)=O)cc1	0	1.7	0.67	1	3.2	-1.1	i
COCCn1c(SCc2ccccc2Cl)nc2c1c(=O)[nH]c(=O)n2C	-5	1.9	0.7	12	0.6	4.8	.
COc1ccccc1C(=O)Nc1nc2cc3c(cc2s1)OCCO3	.	-498	0.7	0	-4.9	-0.3	.
O=C(COC(=O)c1ccco1)NCC1CCCCC1	.	-1.3	0.66	-2	-3.2	.	.
OCC1CCCN(c2nc(CN3CCCCC3)nc3scc(-c4ccccc4)c23)C1 (stereo unspecified)	-10	-4.2	0.66	-3	-2.7	1.4	i
COC(=O)c1ccc(C)c(NS(=O)(=O)c2ccc(OC)c(OC)c2)c1	-21	4.4	0.66	5	4.6	1.0	.
Cc1ccc(CCNC(=O)CN(c2ccc(C)cc2)S(=O)(=O)c2c(C)noc2C)cc1	-15	-0.5	0.73	1	3.2	5.4	i
CCOc1nc(NC(=O)NS(=O)(=O)c2ccccc2F)nc(-c2ccccc2)n1	.	3.0	0.65	-3	-3.1	.	i
O=C(OCC1OC(n2cc(Br)c(=O)[nH]c2=O)C(Br)C1O)c1ccccc1 (stereo unspecified)	.	0.0	0.67	1	1.0	-2.2	i
CC(Sc1n[nH]c(-c2cccs2)n1)C(=O)Nc1ccccc1F (stereo unspecified)	2	-2.4	0.69	-7	6.1	5.5	i
CCN1CCN(Cc2ccc(NC(=O)c3cc(NC(=O)c4cc5cccc(OC)c5o4)cc(OC)c3)cc2C(F)(F)F)CC1	-9	0.8	0.61	14	-4.1&3.6	0.5	i
COc1cc(OC)cc(C(=O)Nc2ncc3c(n2)CC(C)(C)CC3=O)c1	-4	1.0	0.68	-7	1.9	2.0	.
Cc1cccc(NC(=O)c2ccc3c(c2)OCCO3)c1C	2	0.3	0.63	-3	3.0	0.1	i
COc1ccccc1NC(=O)C(=O)Nc1ccccn1	-6	2.8	0.72	-4	-2.4	6.3	i
COc1cccc2c1cc1c(=O)n(CC(=O)N3CCC(C)CC3)nc(C)n12	1	-449	0.7	-1	1.2	-0.8	i
O=C(Nc1nc(-c2cccs2)c(C(=O)C(F)(F)F)s1)c1ccccc1	59	3.4	0.69	-1	1.5	-4.2	i
O=C1CNC(=S)N1Cc1ccc(Cl)cc1	.	3.7	0.66	8	1.7	0.7	i
CCCCN1C(=O)N(c2nnc(C(C)(C)C)s2)C(O)C1c1ccc(C)cc1 (stereo unspecified)	4	6.4	0.68	6	4.2	2.1	i
C=CCNCc1cccn1-c1sc2c(c1C#N)CCCC2	?	4.7	0.66	-8	2.8	4.7	.
COc1ccc(-n2c(Cc3cccn3C)nnc2SCC(=O)Nc2ccccc2)cc1	-3	5.4	0.77	-4	2.8	1.1	i
Cc1ccc(-c2csc(NC(=S)NC(=O)c3cccs3)n2)cc1	-1	3.2	0.74	-9	4.5	6.5	.
O=C(NNS(=O)(=O)c1ccc(C(F)(F)F)cc1)c1cnn(-c2ccccc2)c1C(F)(F)F	27	6.8	0.64	0	2.5	2.9	i
